Rango release inh – inhibition of RanGTP-driven Rango-importin beta dissociation. Biochemical FRET Rango-importin beta, RanGTP-induced dissociation. Potency, µM (titrated, usually from 46.1 µM), inactives show at the highest dose activity change, negative = inhibition. actives 0.071% (n = 340,000). AID 540253; active means falling FRET ratio curve, often poorly fitted, with flat reads before Ran was added; inconclusive means other falling curves, or compound fluorescence or quenching; inactive means flat or rising ratio curve;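 also: potency is read from the fitted curve at half-maximal effect; % of control where 0% means no effect; nearly all actives have a fitted effect of over 45% in size; -100% = wells without RanGTP and RCC1; the record marks most hits as doubtful in a second field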
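FRET read at 45 min, room temperature: inhibitors block the CFP/YFP signal rise when RanGTP (0.6 uM Ran, 2 mM GTP, 0.2 uM RCC1) frees Rango (0.1 uM) from importin beta (0.25 uM). Pre-read after 5 min compound exposure flags interference.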
miR-21 reporter – raises the signal of a miR-21 reporter | HeLa miR-21 FLuc reporter, luciferase, 48 h | 340,000 tested, under 10 active | Potency, µM (top dose mostly 38.3 µM), without a hit: at the highest dose reporter change, positive = more light; active = well fitted rising curve with a large enough effect; inconclusive = small, poorly fitted or top-dose-only effect; inactive = no such curve, though single readings can be large or run the other way;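 also: % of control where 0% means no effect; miR-21 action dims this reporter so a rising signal means less miR-21 action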
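HeLa cells stably expressing CMV-driven firefly luciferase with a downstream miR-21 binding sequence, endogenously expressing miR-21, were treated with titrations (up to about 40uM final) for 48 hours at 37 degree Celsius. Luciferase luminescence was read after lysis.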
Rango-impB inh – prevents formation of the Rango-importin beta complex | Rango CFP/YFP FRET sensor + importin beta, 45 min | Potency, µM (series often up to 92.2 µM), without a hit: at the top dose inhibition of complex formation | actives 0.031% (n = 340,000); active = rising FRET ratio curve, often small or poorly fitted; inconclusive = mostly compound fluorescence or quenching in the first reads; inactive = flat curves in all reads;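 also: potency is read from the fitted curve at half-maximal effect; 0% = DMSO wells and 100% = buffer wells lacking importin beta; nearly all actives have a fitted effect of over 15% in size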
Target sequence (Q14974 whole entry, looked up): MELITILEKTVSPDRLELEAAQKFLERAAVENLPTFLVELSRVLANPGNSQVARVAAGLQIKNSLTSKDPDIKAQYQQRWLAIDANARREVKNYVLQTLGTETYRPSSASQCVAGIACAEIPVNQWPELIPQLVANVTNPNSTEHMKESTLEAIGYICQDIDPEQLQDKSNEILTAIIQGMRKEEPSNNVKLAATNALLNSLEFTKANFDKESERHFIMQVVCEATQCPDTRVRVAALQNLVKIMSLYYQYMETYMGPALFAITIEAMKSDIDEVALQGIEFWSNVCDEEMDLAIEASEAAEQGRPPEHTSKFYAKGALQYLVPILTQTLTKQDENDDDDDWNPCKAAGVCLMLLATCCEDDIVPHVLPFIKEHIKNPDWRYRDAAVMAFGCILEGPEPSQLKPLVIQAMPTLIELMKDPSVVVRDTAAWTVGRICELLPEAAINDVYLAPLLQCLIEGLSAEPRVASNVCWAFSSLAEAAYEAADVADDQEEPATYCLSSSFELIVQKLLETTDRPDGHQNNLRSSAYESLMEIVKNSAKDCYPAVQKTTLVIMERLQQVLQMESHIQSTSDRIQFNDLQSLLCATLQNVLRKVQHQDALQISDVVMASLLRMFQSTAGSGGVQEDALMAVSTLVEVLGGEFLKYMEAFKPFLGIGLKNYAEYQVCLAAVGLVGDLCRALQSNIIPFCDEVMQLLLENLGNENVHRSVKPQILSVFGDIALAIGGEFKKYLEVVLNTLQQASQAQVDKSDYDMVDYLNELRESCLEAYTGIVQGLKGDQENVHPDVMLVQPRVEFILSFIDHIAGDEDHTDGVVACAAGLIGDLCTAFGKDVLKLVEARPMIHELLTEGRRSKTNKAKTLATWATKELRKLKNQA
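FRET biosensor Rango (snurportin 1 IBB between N-terminal EYFP and C-terminal Cerulean), 50 nM in PBS/1 mM DTT/0.02% Tween-20/0.1% BSA, preincubated 5 min RT with compound; 0.125 microM importin beta added, 45 min RT, CFP/YFP FRET ratio read.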
GLA inh pH 4.5 – alpha-galactosidase A (human) inhibition, pH 4.5. 230,000 tested, under 10 active. activity change, negative = inhibition, % at 105 µM. purified enzyme, 4-MU-alpha-Gal fluorescence, pH 4.5. AID 1467. P06280; inconclusive = small, poorly fitted or top-dose-only inhibition, or a rising curve; inactive = flat fitted curve, though single readings scatter; no compound was filed as active;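 also: 0% = full activity with enzyme and -100% = basal without enzyme; dose as in the result columns while the protocol names 77 µM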
Starred values were filed as active, the others as inactive; ? = inconclusive; . = not tested or not shown; & = joins results of further samples.

SMILES	Rango release inh	miR-21 reporter	Rango-impB inh	GLA inh pH 4.5
O=C(COC(=O)c1ccc2c(c1)OCCO2)Nc1ccc(F)cc1	4%	.	6.5%	.
O=C(Nc1cccc(S(=O)(=O)N2CCOCC2)c1)c1cn(-c2ccccc2)nc1-c1ccccc1	14%	-1%	-3.0%	-21
Cc1ccc(C(=O)NC2CC3CCC(C2)N3Cc2ccco2)cc1 (centres undefined)	1%	-1%	-0.6%	5
Cc1ccc(C)c(S(=O)(=O)N2CCN(CC(=O)Nc3ccc4c(c3)OCCO4)CC2)c1	-7%	-1%	1.4%	-10
Cc1c(CN2CCC(CO)(CC3CCCCO3)CC2)cnn1C (centres undefined)	5%	-1%	-0.2%	-16
Cc1cc(OCC(=O)NC(Cc2ccc(Cl)cc2)C(=O)O)c2c(C)cc(=O)oc2c1 (centres undefined)	0%	1%	-3.0%	.
Cc1c(C(c2ccc(C(=O)O)cc2)c2c(C)n(C)n(-c3ccccc3)c2=O)c(=O)n(-c2ccccc2)n1C	-15%	-4%	-0.3%	.
C/C(=N\OC(=O)c1cccc(Cl)c1)c1sc(C)nc1C	-13%	-1%	-0.9%	1
CCOc1ccc(CCNC(=O)c2cc(C)nn2-c2ccccc2)cc1	-11%	1%	4.4%	-3
O=C(NCC1CCCN1S(=O)(=O)c1cccs1)c1c(F)cccc1F (centres undefined)	5%	.	?	.
CCNc1nc(NC(C)C)nc(N(C#N)Cc2ccccc2)n1	-14%	-7%	1.4%	0
CCOC(=O)c1sc(Nc2cccc(Cl)c2)nc1C	1%	-48%	8.9%	-7
COc1ccc(CN2CCc3cc(OC)c(OC)cc3C2)cc1O	12%	7%	1.8%	5
CCOC(=O)CNC(=O)C(CO)NC(=O)OCc1ccccc1 (centres undefined)	0%	-6%	-0.6%	4
NC(=O)CC(NC(=O)c1ccc(Br)cc1)c1ccc(NCc2ccc(F)cc2)c([N+](=O)[O-])c1 (centres undefined)	-1%	-5%	6.1%	5
CCCN(CCC)CCCNc1ccc2nnc(-c3ccc(F)cc3)n2n1	0%	-9%	-2.7%	?
N#Cc1c(Cl)nc(-c2ccncc2)nc1-c1ccccc1	-8%	2%	?	.
CCOc1ccc2nc(NC(=O)Cc3cccs3)sc2c1	17%	-51%	-10%	-1
COC(=O)CN1C(=O)Nc2ccc(Cl)cc2C1c1ccccc1 (centres undefined)	25%	7%	-7.7%	.
Cc1ccc(NC(=O)CSc2nnc(C3CCCCC3)n2N)cc1F	-2%	-5%	2.2%	-10
O=C(Nc1nnc(-c2ccccc2)s1)c1ccccc1F	5%	-49%	2.7%	.
Oc1ccc(/C=N\Nc2nncc(-c3ccccc3)n2)cc1	-2%	-2%	?	?
Cn1c(=O)c2[nH]c(C3CCC3)nc2n(C)c1=O	6%	.	1.2%	.
CCOC(=O)C1=C(C)N(CCCCCC(=O)O)C(=O)NC1c1ccccc1Cl (centres undefined)	-12%	-14%	0.2%	4
Cc1cccc(NC(=O)COc2nsnc2N2CCOCC2)c1	0%	-17%	-0.8%	8
c1csc(CNCc2ccncc2)c1	-6%	-2%	-1.0%	-5
CCCCNC(=S)N/N=C/c1ccc(OCC(=O)Nc2c(C)cc(C)cc2C)c(OC)c1	19%	-11%	-1.1%	-5
COc1cccc(CSc2nccn2C)c1	1%	-9%	1.6%	.
Cc1ccc(N(CC(O)CON=C2c3ccccc3-c3ccccc32)S(C)(=O)=O)cc1 (centres undefined)	-5%	14%	-0.6%	-1
O=C(Nc1ccc2c(c1)CCC2)c1cccc(S(=O)(=O)N2CCN(c3ccccc3)CC2)c1	25%	7%	-2.9%	1
O=C(O)c1ccccc1-c1cc2ccccc2[nH]1	1%	.	0.5%	.
CCOc1cc(N2CCOCC2)c(OCC)cc1NC(=O)COc1ccc2ccc(=O)oc2c1	.	-4%	.	4
CCN(CC)c1ccc(S(=O)(=O)N2CCOCC2)cc1NC(=O)CSc1nncn1C	0%	.	-1.5%	.
O=C1C2C(C(=O)N1/N=C/c1ccc(N3CCCCC3)o1)C1C=CC2C12CC2 (centres undefined)	-29%	2%	?	1
CCC(C)NS(=O)(=O)c1ccc(NC(C)=O)cc1 (centres undefined)	-9%	-11%	-1.7%	-5
CCCCC(=O)C1CCN(Cc2ccccc2)CC1	-4%	-3%	-3.1%	-3
Cc1ccccc1NC(=O)CN(C)S(=O)(=O)c1ccc(-c2ccc(=O)[nH]n2)s1	-28%	-6%	1.1%	.
Cc1onc(-c2c(F)cccc2Cl)c1C(=O)N1CCSCC1	-13%	4%	-3.5%	-4
C=CCn1c(COc2ccc(F)cc2)nnc1SCC(=O)Nc1cccc(S(N)(=O)=O)c1	-1%	-12%	0.6%	5
Cc1cc(NC(=O)COc2cccnc2[N+](=O)[O-])no1	-23%	-4%	-1.4%	4
Cc1ccc(C(=O)CSC2=C(C#N)C(c3ccco3)C3=C(CC(C)(C)CC3=O)N2)cc1 (centres undefined)	?	19%	?	-9
COc1ccccc1NC(=O)NCC1CC1(Cl)Cl (centres undefined)	3%	0%	-0.7%	.
O=C(COCC(=O)N/N=C/c1ccc(F)cc1)N/N=C/c1ccc(F)cc1	-9%	-10%	-0.4%	-5
O=C(NC1CCCCC1)C(c1ccncc1)N(C(=O)c1csnn1)c1cccc(F)c1 (centres undefined)	5%	-1%	-1.7%	.
CN(C)CCNc1c2c(nc3ccccc13)CCC2	-1%	20%	?	.
Cc1ccc(NS(=O)(=O)c2ccc(C)c(C(=O)Nc3ccc(S(=O)(=O)Nc4onc(C)c4C)cc3)c2)cc1	1%	.	0.4%	.
COCCNC(=O)/C(C#N)=c1\s/c(=C\c2ccccc2OC(F)F)c(=O)n1Cc1ccccc1	.	-1%	.	13
OC1(c2cccc(C(F)(F)F)c2)CCN(c2ncnc3c2[nH]c2ccc(F)cc23)CC1	20%	?	0.6%	-4
O=C(Nc1nccs1)c1ccc2c(c1)OCO2	7%	-45%	-2.3%	.
Cn1c(N)c(C(=O)NCc2ccccc2Cl)sc1=S	?	-1%	-0.5%	4
O=C(Nc1cc(S(=O)(=O)N2CCOCC2)ccc1N1CCCCC1)c1ccccc1Br	-7%	.	-3.2%	.
S=C(NCc1ccccc1)NCc1cccc(Cl)c1	-10%	-6%	-1.6%	.
CCOC(=O)C1(Cc2ccc(O)cc2)NC(c2ccco2)C2C(=O)N(c3ccccc3F)C(=O)C21 (centres undefined)	-7%	2%	-0.1%	-3
CCc1nc(SCc2ccccc2C)n[nH]1	6%	-25%	0.7%	.
CCOC(=O)c1c(NC(=O)CN2CCCc3ccccc32)sc(C)c1CC	17%	-9%	-1.3%	-9
COc1ccc(-c2c(C)nn(Cc3ccccc3)c2N)cc1	5%	-6%	0.2%	-5
Cn1c(-c2ccccc2)cc(=O)n1-c1ccccc1	?	.	6.8%	.
CN(C)C(CNC(=O)c1cc2ccccc2o1)c1ccco1 (centres undefined)	-4%	.	-1.9%	.
O=C(CCCN1C(=O)C(c2ccccc2)Oc2cccnc21)NCc1ccccc1Cl (centres undefined)	-10%	-2%	-3.1%	.
COc1ccc(C(=O)OCC(=O)N2C(C)CCCC2C)cc1S(=O)(=O)N1CCOCC1 (centres undefined)	9%	.	0.2%	.

Remaining list, next part.
SMILES	Rango release inh	miR-21 reporter	Rango-impB inh	GLA inh pH 4.5
CCSc1nnc(NC(=O)CSC2=NCCS2)s1	3%	-8%	-1.4%	-2
COc1cc(C=O)ccc1OCCCOc1ccccc1C(=O)O	-9%	?	1.2%	10
CCC(=O)Nc1c(C)c(CC)nc2ccccc12	-5%	-5%	-2.8%	-1
Cc1ccc(-c2n[nH]c(=S)n2/N=C/c2cccn2C)cc1	-2%	-17%	-4.8%	10
COc1ccccc1CNc1ccc2nnc(CCNC(=O)c3ccc(C)cc3)n2n1	-2%	-28%	-0.4%	-1
CC(Sc1nc2ccccc2s1)C(=O)NCc1ccc2c(c1)OCO2 (centres undefined)	-3%	-26%	-0.1%	-2
COc1ccc(C)cc1NC(=O)COC(=O)c1ccc2c(c1)OCO2	0%	.	0.9%	.
Cc1nnc(SCC(=O)NC2CCCC2)n1-c1ccccc1	11%	.	2.1%	.
Cc1cc(O)c(Sc2ccccc2)c(=O)o1	-12%	.	-4.5%	.
Cc1ccc(C(=O)OC(C)CN2CCOCC2)cc1 (centres undefined)	-4%	-12%	6.9%	-1
CC(=O)C1CCCN(C(=O)c2ccc3nc(Cc4cccc(Cl)c4)oc3c2)C1 (centres undefined)	1%	-5%	0.2%	.
CC(C)NC(=O)CN(C(=O)CCC(=O)Nc1ccccn1)c1ccc(F)c(Cl)c1	16%	-2%	?	5
O=C(CSc1nc2[nH]c(=O)cc(O)c2s1)NCCc1ccccc1	0%	.	-5.1%	.
CCOC(=O)C1CCN(C(=O)CCn2c(=O)[nH]c3ccsc3c2=O)CC1	9%	-5%	0.8%	3
S=c1[nH]nc(Nc2ccccc2)s1	46%	-16%	-0.3%	1
O=c1[nH]c(N2CCc3ccccc32)nc2c1CCCC2	-12%	-9%	-0.7%	-1
CN(C)c1ccc(C2CC(c3ccccc3)=Nc3nc(-c4ccccc4)cn32)cc1 (centres undefined)	.	-37%	.	-4
Cc1nc(C)c(C(=O)C2=C(O)C(=O)N(CCN3CCOCC3)C2c2ccco2)s1 (centres undefined)	-17%	-4%	?	6
CCCN(CCC)CCCNC(=O)c1cn(CC)c2ccc(S(=O)(=O)N(C)C3CCCCC3)cc2c1=O	-26%	0%&-4%	0.0%	.
O=C(Nc1nc(-c2ccccn2)cs1)c1ccc(Br)s1	-12%	15%	-3.5%	7
Cc1ccc(C2=CC(=O)CC(C)(C)C2)cc1	0%	.	-3.3%	.
O=C(c1ccc(-c2ccccc2)cc1)N1CCN(c2nc3ccccc3o2)CC1	-5%	0%	2.7%	6
O=C(NCCc1cccs1)c1cccs1	2%	-54%	-0.6%	1
O=C(Nc1cccc(C(F)(F)F)c1)c1cc(-c2ccco2)on1	2%	-3%	-3.3%	.
C[n+]1cnc(-c2ccccc2)cc1-c1ccccc1	8%	-11%	-3.8%	-2
COC(=O)c1ccccc1OCCCOc1ccc(C=O)cc1OC	-18%	20%	-4.0%	-1
CCOC(=O)CC1(NC(=O)c2cc(COc3cncc(Cl)c3)on2)CCCCC1	-2%	14%	-0.2%	.
COc1ccc(OC)c(C2C(C#N)=C(N)Oc3cc(C)n(Cc4ccccn4)c(=O)c32)c1 (centres undefined)	-10%	-7%	1.4%	-8

Quoted from the listing.
Rango release inh with `CCOC(=O)C1CCN(C(=O)CCn2c(=O)[nH]c3ccsc3c2=O)CC1` stands at 9%
Rango-impB inh with `COc1ccc(C)cc1NC(=O)COC(=O)c1ccc2c(c1)OCO2` stands at 0.9%

In the list so far, these contain an aryl methoxy group.
SMILES	Rango release inh	miR-21 reporter	Rango-impB inh	GLA inh pH 4.5
COc1ccc(CN2CCc3cc(OC)c(OC)cc3C2)cc1O	12%	7%	1.8%	5
CCCCNC(=S)N/N=C/c1ccc(OCC(=O)Nc2c(C)cc(C)cc2C)c(OC)c1	19%	-11%	-1.1%	-5
COc1cccc(CSc2nccn2C)c1	1%	-9%	1.6%	.
COc1ccccc1NC(=O)NCC1CC1(Cl)Cl (centres undefined)	3%	0%	-0.7%	.
COc1ccc(-c2c(C)nn(Cc3ccccc3)c2N)cc1	5%	-6%	0.2%	-5
COc1ccc(C(=O)OCC(=O)N2C(C)CCCC2C)cc1S(=O)(=O)N1CCOCC1 (centres undefined)	9%	.	0.2%	.
COc1cc(C=O)ccc1OCCCOc1ccccc1C(=O)O	-9%	?	1.2%	10
COc1ccccc1CNc1ccc2nnc(CCNC(=O)c3ccc(C)cc3)n2n1	-2%	-28%	-0.4%	-1
COc1ccc(C)cc1NC(=O)COC(=O)c1ccc2c(c1)OCO2	0%	.	0.9%	.
COC(=O)c1ccccc1OCCCOc1ccc(C=O)cc1OC	-18%	20%	-4.0%	-1
COc1ccc(OC)c(C2C(C#N)=C(N)Oc3cc(C)n(Cc4ccccn4)c(=O)c32)c1 (centres undefined)	-10%	-7%	1.4%	-8

A portion of the library (hit frequency here may not be typical).
